Screening results from PubChem BioAssay.
VCAM-1 rise = boosters of cytokine-driven VCAM-1 levels – cell-based, plate reader, pooled HUVEC, TNFa stimulus (AID 455). HUVEC TNFa-induced VCAM-1 immunofluorescence, plate reader; numbers were filed only for top-ranked candidate wells. augmentation, % at 5 µM. hit rate 0.2% among 10,000;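 active = a compound raising TNF-alpha-driven VCAM-1 surface staining, with its hit status upheld on visual or statistical review; inactive = the rest, including hits rejected on review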;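 also: 0% = TNFa with vehicle and 100% = strongest image-checked hit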
Proteasome disasm = blocks ATP-dependent breakdown of the yeast 26S proteasome; anti-FLAG beads, GFP-proteasome disassembly, flow cytometry; inhibition of disassembly, % (concentration not given with the values); hit rate 0.2% among 24,000; AID 751;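 active = above 40%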;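 also: plate controls were ATP control with full disassembly for no effect and ATP-gamma-S intact proteasomes for full effect; higher percent means more bead fluorescence retained so stronger block of disassembly; stock transfer was 100 nL into about 10 µL; wells with too few beads may also be inconclusive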
Numbers without * were called inactive; i = inactive. Only part of the results is shown; rates above refer to the full screens.

VCAM-1 rise,Proteasome disasm,SMILES
i,0.8,C[C@]12CC[C@H]3[C@@H](CCC4=CC(=O)CC[C@@]43C)[C@@H]1CC[C@@H]2C(=O)CO
i,0.1,c1ccc2c(CC3=NCCN3)cccc2c1
i,0.5,Cc1nnc(NS(=O)(=O)c2ccc(N)cc2)s1
i,0.0,NS(=O)(=O)c1cc2c(cc1C(F)(F)F)NC(Cc1ccccc1)NS2(=O)=O (stereo unspecified)
i,-0.5,COc1cc2nc(N3CCN(C(=O)C4COc5ccccc5O4)CC3)nc(N)c2cc1OC (stereo unspecified)
i,-0.1,CN(C)CCCN1c2ccccc2Sc2ccccc21
i,-1.7,COc1ccccc1OCC(O)COC(N)=O (stereo unspecified)
i,-0.3,COc1ccc(CN(CCN(C)C)c2ccccn2)cc1
i,-0.2,CC1=NN(c2ccccc2)C(=O)C1
i,-0.3,CC(C)Cc1ccc(C(C)C(=O)O)cc1 (stereo unspecified)

Arranged by number of heavy atoms (lowest first): five of the compounds above.
VCAM-1 rise,Proteasome disasm,SMILES
i,0.5,Cc1nnc(NS(=O)(=O)c2ccc(N)cc2)s1
i,-0.1,CN(C)CCCN1c2ccccc2Sc2ccccc21
i,-0.3,COc1ccc(CN(CCN(C)C)c2ccccn2)cc1
i,0.8,C[C@]12CC[C@H]3[C@@H](CCC4=CC(=O)CC[C@@]43C)[C@@H]1CC[C@@H]2C(=O)CO
i,0.0,NS(=O)(=O)c1cc2c(cc1C(F)(F)F)NC(Cc1ccccc1)NS2(=O)=O (stereo unspecified)

Quoted from the listing:
C[C@]12CC[C@H]3[C@@H](CCC4=CC(=O)CC[C@@]43C)[C@@H]1CC[C@@H]2C(=O)CO in Proteasome disasm = 0.8
Cc1nnc(NS(=O)(=O)c2ccc(N)cc2)s1 in Proteasome disasm = 0.5
